GLA inh pH 4.5: qHTS Assay for Inhibitors of Human alpha-Galactosidase at pH 4.5 | purified enzyme, 4-MU-alpha-Gal fluorescence, pH 4.5 | activity change, negative = inhibition, % at 105 µM | 230,000 tested, under 10 active; inconclusive = small, poorly fitted or top-dose-only inhibition, or a rising curve; inactive = flat fitted curve, though single readings scatter; no compound was filed as active;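 note: 0% = full activity with enzyme and -100% = basal without enzyme; dose as in the result columns while the protocol names 77 µM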
Target sequence (P06280 whole entry, looked up): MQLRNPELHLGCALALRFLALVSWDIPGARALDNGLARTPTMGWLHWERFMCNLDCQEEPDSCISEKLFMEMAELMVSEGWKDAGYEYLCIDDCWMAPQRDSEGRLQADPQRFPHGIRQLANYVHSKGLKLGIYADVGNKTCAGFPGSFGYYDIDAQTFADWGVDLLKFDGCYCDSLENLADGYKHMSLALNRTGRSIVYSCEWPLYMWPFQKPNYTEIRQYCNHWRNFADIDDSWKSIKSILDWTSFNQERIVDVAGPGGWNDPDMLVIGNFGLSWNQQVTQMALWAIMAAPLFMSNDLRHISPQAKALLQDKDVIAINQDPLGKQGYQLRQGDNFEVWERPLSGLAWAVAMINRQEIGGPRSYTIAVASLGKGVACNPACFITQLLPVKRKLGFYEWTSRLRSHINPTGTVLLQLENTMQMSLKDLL
Rango dissoc inh: qHTS Assay for Inhibitors of RanGTP induced Rango (Ran-regulated importin-beta cargo) - Importin beta complex dissociation; Snurportin-1 (Homo sapiens) + GTP-binding nuclear protein Ran (Homo sapiens) + Importin …; Biochemical FRET Rango-importin beta, RanGTP-induced dissociation; Potency, µM (titrated, usually from 46.1 µM), for inactives: top-dose activity change, negative = inhibition; actives 0.071% (n = 340,000); active means falling FRET ratio curve, often poorly fitted, with flat reads before Ran was added; inconclusive means other falling curves, or compound fluorescence or quenching; inactive means flat or rising ratio curve;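 note: potency is the fitted concentration of half-maximal effect; % of control where 0% means no effect; nearly all actives have a fitted effect of over 45% in size; -100% = wells without RanGTP and RCC1; the record marks most hits as doubtful in a second field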
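Rango (0.1 uM)–importin beta (0.25 uM) complex; RanGTP-RCC1 trigger; 45 min RT; CFP/YFP FRET read.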
Rango complex inh: qHTS Assay for Inhibitors of Rango (Ran-regulated importin-beta cargo) - Importin beta complex formation; Importin subunit beta-1 (Homo sapiens), Q14974; Rango CFP/YFP FRET sensor + importin beta, 45 min; Potency, µM (titrated, usually from 92.2 µM), for inactives: at the highest dose inhibition of complex formation; actives 0.031% (n = 340,000); AID 540263, 2011; active = rising FRET ratio curve, often small or poorly fitted; inconclusive = mostly compound fluorescence or quenching in the first reads; inactive = flat curves in all reads;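 note: potency is the fitted concentration of half-maximal effect; 0% = DMSO wells and 100% = buffer wells lacking importin beta; nearly all actives have a fitted effect of over 15% in size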
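FRET biosensor Rango (snurportin 1 IBB between N-terminal EYFP and C-terminal Cerulean), 50 nM in PBS/1 mM DTT/0.02% Tween-20/0.1% BSA, preincubated 5 min RT with compound; 0.125 microM importin beta added, 45 min RT, CFP/YFP FRET ratio read.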
miR-21 FLuc: qHTS Assay for Modulators of miRNAs and/orActivators of miR-21 | HeLa miR-21 FLuc reporter, luciferase, 48 h | Potency, µM (series often up to 38.3 µM), for the others: at the highest dose reporter change, positive = more light | 340,000 tested, under 10 active; active = well fitted rising curve with a large enough effect; inconclusive = small, poorly fitted or top-dose-only effect; inactive = no such curve, though single readings can be large or run the other way;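 note: % of control where 0% means no effect; miR-21 action dims this reporter so a rising signal means less miR-21 action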
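HeLa cells endogenously expressing miR-21, stably carrying CMV-driven firefly luciferase with a downstream miR-21 binding site, 2000 cells/well. Titrations up to approximately 40 uM, 48 hours; luciferase luminescence read.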
Numbers without * were called inactive; ? = inconclusive; nt = no result given.

Short forms: A = GLA inh pH 4.5; B = Rango dissoc inh; C = Rango complex inh; D = miR-21 FLuc
Compound: COc1cccc(NC(=O)C(C#N)Cc2ccncc2)c1 (centres undefined)
  A: -16	B: -1%	C: -1.5%	D: 3%
Compound: CCNC(=O)c1sc(=S)n(-c2ccc(C)cc2)c1N
  A: 4	B: 37%	C: 0.6%	D: -3%
Compound: CCOc1ccc(NC(=O)N2CCC(NC(=O)c3ccco3)CC2)cc1
  A: 6	B: 5%	C: -1.2%	D: -3%
Compound: O=C(Nc1nc(-c2ccccn2)cs1)c1cccc(S(=O)(=O)N2CCOCC2)c1
  A: nt	B: ?	C: 0.0%	D: nt
Compound: C=CCN1C(=O)C(C)(C)N(C(=O)c2cccc([N+](=O)[O-])c2)c2ccccc21
  A: nt	B: -5%	C: -1.4%	D: 7%
Compound: NC(=O)C1(C(N)=O)OC1c1ccc(Cl)cc1Cl (centres undefined)
  A: 0	B: 29%	C: -1.4%	D: 0%
Compound: Cc1ccc(C)c(S(=O)(=O)Nc2ccc(-n3cnnn3)cc2)c1
  A: nt	B: 11%	C: -4.1%	D: nt
Compound: CC1(c2ccc([N+](=O)[O-])cc2)CC(C)(C)N(C(=O)c2ccccc2)c2ccccc21 (centres undefined)
  A: 7	B: nt	C: nt	D: -3%
Compound: COc1ccc(C(=O)N/C(=C/c2ccco2)C(=O)NC2CCS(=O)(=O)C2)cc1 (centres undefined)
  A: -1	B: 5%	C: 0.7%	D: 0%
Compound: CC1CCCCN1CCCNC(=O)c1nn(C)c2c1CS(=O)(=O)c1ccccc1-2 (centres undefined)
  A: nt	B: -7%	C: -1.2%	D: 0%
Compound: CC(C)c1ccccc1NC(=S)NC(C)c1ccccc1 (centres undefined)
  A: -20	B: 1%	C: 1.3%	D: -1%
Compound: COc1ccc(S(=O)(=O)CC2(O)CCN(C(=O)C(C)(C)C)CC2)cc1
  A: -1	B: 3%	C: -3.2%	D: 3%
Compound: CCN(CC)CCNC(=O)c1cc(-c2ccco2)nc2ccccc12
  A: 27	B: -29%	C: ?	D: 0%
Compound: Cc1ccc(N(CC(=O)N2CCn3c2nc2ccccc23)S(=O)(=O)c2c(C)n[nH]c2C)cc1
  A: -25	B: 2%	C: 0.0%	D: -4%
Compound: O=C(Cn1cnc2c(nnn2Cc2ccccc2F)c1=O)OCc1ccccc1
  A: -4	B: 1%	C: -3.9%	D: -4%
Compound: O=C(c1cccc(Br)c1)c1cn(-c2ccccc2)nc1C(=O)c1ccccc1
  A: -4	B: -7%	C: 0.4%	D: -1%
Compound: O=C(NC(=S)Nc1ccc(N2CCOCC2)cc1)c1ccccc1
  A: -11	B: 12%	C: 0.7%	D: -34%
Compound: CC(=O)Nc1ccc(N2CCc3c(C)c(C#N)c4nc5ccccc5n4c32)cc1
  A: 0	B: nt	C: nt	D: 22%
Compound: O=C(c1ccc(N2CCOCC2)cc1[N+](=O)[O-])N1CCOCC1
  A: 4	B: 0%	C: ?	D: -1%
Compound: CC(=O)Nc1ccc(S(=O)(=O)N[C@@H](C)C(=O)OCc2ccc(Cl)cc2)cc1
  A: 2	B: 2%	C: 0.0%	D: -4%

Only GLA inh pH 4.5, for some of the entries so far:
compound	GLA inh pH 4.5
CCN(CC)CCNC(=O)c1cc(-c2ccco2)nc2ccccc12	27
CC(=O)Nc1ccc(N2CCc3c(C)c(C#N)c4nc5ccccc5n4c32)cc1	0

Six consecutive records already listed, quoted:
Short forms: A = GLA inh pH 4.5; B = Rango dissoc inh; C = Rango complex inh; D = miR-21 FLuc
Compound: O=C(Cn1cnc2c(nnn2Cc2ccccc2F)c1=O)OCc1ccccc1
  A: -4	B: 1%	C: -3.9%	D: -4%
Compound: O=C(c1cccc(Br)c1)c1cn(-c2ccccc2)nc1C(=O)c1ccccc1
  A: -4	B: -7%	C: 0.4%	D: -1%
Compound: O=C(NC(=S)Nc1ccc(N2CCOCC2)cc1)c1ccccc1
  A: -11	B: 12%	C: 0.7%	D: -34%
Compound: CC(=O)Nc1ccc(N2CCc3c(C)c(C#N)c4nc5ccccc5n4c32)cc1
  A: 0	B: nt	C: nt	D: 22%
Compound: O=C(c1ccc(N2CCOCC2)cc1[N+](=O)[O-])N1CCOCC1
  A: 4	B: 0%	C: ?	D: -1%
Compound: CC(=O)Nc1ccc(S(=O)(=O)N[C@@H](C)C(=O)OCc2ccc(Cl)cc2)cc1
  A: 2	B: 2%	C: 0.0%	D: -4%

(more compounds)
Short forms: A = GLA inh pH 4.5; B = Rango dissoc inh; C = Rango complex inh; D = miR-21 FLuc
Compound: CCC(=O)c1ccc(CCCCCC(=O)O)s1
  A: 1	B: -6%	C: -2.6%	D: -22%
Compound: O=C(COC(=O)CCCN=C1NS(=O)(=O)c2ccccc21)NC(=O)NC1CCCC1
  A: -5	B: -16%	C: -3.4%	D: 0%
Compound: Cc1ccc(S(=O)(=O)N/N=C/c2cc([N+](=O)[O-])ccc2O)cc1[N+](=O)[O-]
  A: -8	B: -11%	C: -0.3%	D: -31%
Compound: COc1ccc(C(OC(=O)c2ccco2)C(=O)NC(C)(C)C)cc1 (centres undefined)
  A: -7	B: 1%	C: 2.3%	D: -3%
Compound: O=C(O)COc1ccc2oc3c(c2c1)CCCC3
  A: nt	B: 9%	C: ?	D: 0%
Compound: CN(CCn1ccnc1)Cc1cn(-c2ccccc2)nc1-c1ccc2c(c1)OCO2
  A: -4	B: 3%	C: -4.7%	D: -13%
Compound: COc1ccc(-c2cc(C(F)(F)F)n3nc(C(=O)N4CCOCC4)c(Cl)c3n2)cc1
  A: -13	B: -7%	C: -0.2%	D: 0%
Compound: Cc1cc([N+](=O)[O-])nn1CC(=O)N1CCCc2ccccc21
  A: 1	B: -7%	C: 0.9%	D: -7%
Compound: CC1(C)C2CCC1(C)C(OC(=O)c1ccc(O)cc1)C2 (centres undefined)
  A: -9	B: 3%	C: -0.9%	D: -16%
Compound: O=c1[nH]c2cccnc2n1Cc1ccccc1
  A: -2	B: -6%	C: -0.5%	D: 4%
Compound: Cc1cc(OCc2cn3cccnc3n2)ccc1Cl
  A: 7	B: -20%	C: -0.1%	D: -96%
Compound: CCOc1ccc(CCNC(=O)CCc2nc(-c3ccc(C)cc3)no2)cc1OCC
  A: 1	B: -1%	C: 4.5%	D: -3%
Compound: Brc1ccc(C2=CC(c3ccco3)n3ncnc3N2)cc1 (centres undefined)
  A: -2	B: ?	C: ?	D: 0%
Compound: O=C(Nc1nc2c(s1)CCCC2=O)c1cnccn1
  A: -3	B: -2%	C: -2.3%	D: -13%
Compound: CN(C)S(=O)(=O)c1ccc(NC(=O)CNc2cc(S(=O)(=O)N3CCCC3)ccc2OCC(F)(F)F)cc1
  A: 1	B: 32%	C: 4.3%	D: 2%
Compound: COc1ccc(S(=O)(=O)CCC(=O)NC2CCCCC2)cc1
  A: -5	B: 1%	C: 1.3%	D: 1%
Compound: O=Cc1cn[nH]c1-c1cccc([N+](=O)[O-])c1
  A: -9	B: -11%	C: -0.8%	D: 1%
Compound: CCC1CCCCN1C(=S)NCc1ccccc1 (centres undefined)
  A: 3	B: -2%	C: -0.1%	D: 2%
Compound: CC1(C)CC(NC(=O)CSc2ccccc2)CC(C)(C)N1
  A: -8	B: 11%	C: 6.9%	D: -3%
Compound: O=C(CN1CCN(Cc2ccccc2)CC1)Nc1ccc(S(=O)(=O)N2CCOCC2)cc1
  A: 2	B: -20%	C: 0.6%	D: -4%
Compound: COc1ccccc1N(C)S(=O)(=O)c1ccc(C)c(C(=O)NCc2ccccn2)c1
  A: nt	B: -7%	C: -0.8%	D: nt
Compound: CCOC(CNC(=O)C(=O)NCC(c1ccco1)N1CCN(c2ccc(OC)cc2)CC1)OCC (centres undefined)
  A: nt	B: 17%	C: -1.1%	D: -2%
Compound: CC(Oc1ccc(Cl)cc1Cl)C(=O)Nc1ccc(N2CCN(C)CC2)cc1 (centres undefined)
  A: -5	B: 5%	C: -1.5%	D: -4%
Compound: COc1ccc(S(=O)(=O)/C(C#N)=C/Nc2cccc(OC)c2)cc1
  A: nt	B: -4%	C: -0.7%	D: 0%
Compound: Cn1c(=O)c2c(nc(SCC(=O)N3CCCCCC3)n2C)n(C)c1=O
  A: 2	B: -9%	C: 0.3%	D: -4%
Compound: CSc1nc(-c2ccco2)nn1C(=O)CCc1ccccc1
  A: -3	B: 2%	C: 3.4%	D: -4%
Compound: O=C(COc1ccc(S(=O)(=O)Nc2ccccc2)cc1)N1CCOCC1
  A: -3	B: 5%	C: -0.2%	D: -7%
Compound: O=C(c1ccc(S(=O)(=O)N2CCCCC2)cc1)N(c1ccccn1)C1CCCCC1
  A: -16	B: -17%	C: -4.6%	D: -4%
Compound: CCOc1ccc(CN(C)C(=O)CNC(=O)c2cc(OC)c(OC)c(OC)c2)cc1
  A: nt	B: -2%	C: -0.1%	D: 6%
Compound: O=C(O)c1cc(Cl)c(Cl)cc1C(=O)Nc1cccnc1
  A: -2	B: nt	C: nt	D: 0%
Compound: COc1ccc([C@H](C)NC[C@H](O)c2ccc(O)c(NC=O)c2)cc1
  A: 2	B: -2%	C: -2.8%	D: -24%
Compound: CCc1ccc(S(=O)(=O)n2c(C)nc3ccccc32)cc1
  A: nt	B: 14%	C: -2.3%	D: -1%
Compound: Nc1cccc2c1C(=O)N(C(=O)/C=C/c1cccc(Br)c1)C2=O
  A: -17	B: ?	C: ?	D: 13%
Compound: O=C(NCc1ccco1)c1cc(-c2cccs2)on1
  A: 7	B: 5%	C: -0.7%	D: -63%
Compound: CO/N=C(/CS(=O)Cc1ccccc1Cl)c1ccc(Cl)cc1Cl (centres undefined)
  A: -1	B: 9%	C: 0.6%	D: -3%
Compound: CCCCC1OC23CCCCC2C(C#N)(C(=N)O3)C1(C#N)C#N (centres undefined)
  A: 0	B: ?	C: ?	D: -3%
Compound: COc1ccccc1C(=O)NNC(=O)Cc1ccccc1
  A: nt	B: 2%	C: 1.4%	D: -9%
Compound: O=C(NCCOc1ccccc1)c1ccccc1
  A: 0	B: 2%	C: 2.5%	D: -7%
Compound: O=C(c1cccs1)N1CCN(C(=O)C2CCCO2)CC1 (centres undefined)
  A: 3	B: -7%	C: 0.8%	D: -4%
Compound: CCC(=O)Nc1nonc1-c1nc2ccccc2n1Cc1ccc(Cl)c(Cl)c1
  A: nt	B: 11%	C: -1.1%	D: nt
Compound: Cc1cc(=O)oc2cc(OC(C)C(=O)NC3CCCC3)ccc12 (centres undefined)
  A: nt	B: 42%	C: 4.7%	D: -3%
Compound: O=C(Nc1ccc(CN2CCOCC2)cc1)c1cccs1
  A: 4	B: 0%	C: 5.1%	D: -33%
Compound: CCCCCn1c(=O)[nH]c2cc(C(=O)NCCCN3CCC(C)CC3)ccc2c1=O
  A: 21	B: -4%	C: 3.1%	D: -6%
Compound: O=C(CCCOC(=O)c1ccc(O)cc1)c1ccccc1
  A: nt	B: 1%	C: -2.5%	D: nt
Compound: C[C@H](NC(=O)c1nc[nH]c1C(=O)N1CCc2ccccc2C1)c1ccccc1
  A: nt	B: -25%	C: -1.1%	D: nt
Compound: Cc1nc(SCC(=O)NC2CCS(=O)(=O)C2)c2c(C)c(C)sc2n1 (centres undefined)
  A: nt	B: -2%	C: 0.4%	D: nt
Compound: Cc1nc2ccc(NC(=O)c3cc(S(=O)(=O)N4CCOCC4)ccc3C)cc2s1
  A: -3	B: 3%	C: -2.4%	D: 15%
Compound: CCOC(=O)N/N=C(\c1ccccc1)C(O)c1ccccc1 (centres undefined)
  A: -6	B: 7%	C: -9.2%	D: 11%
Compound: CCOc1ccc(NS(=O)(=O)c2cc(Cl)ccc2OC)cc1
  A: 11	B: -10%	C: 2.5%	D: 20%
Compound: CN1CCN(C2=Cc3ccccc3Sc3cc(F)c(F)cc32)CC1
  A: -16	B: 0%	C: 0.8%	D: -6%
Compound: COc1ccc(C(=O)NC(=S)SCC(=O)O)cc1
  A: -1	B: -2%	C: -1.5%	D: -33%
Compound: N=c1n(CCOc2ccccc2)c2ccccc2n1CCN1CCOCC1
  A: 12	B: 1%	C: 0.0%	D: -6%

Screening data: PubChem BioAssay, National Center for Advancing Translational Sciences (NCATS)

These rows are one share of the data, so the mix of outcomes need not match the whole.
